Screening data: PubChem, ICCB-Longwood Screening Facility, Harvard Medical School
MbtI inh: inhibitors of Mycobacterium tuberculosis siderophore enzyme MbtI; P9WFX0; purified MbtI enzyme, fluorescence intensity read-out; inhibition, %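 (about 17 µg/mL by stock and volumes)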; hit rate 0.89% among 100,000;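 active = above 50% in both replicates, above 80% if mildly self-fluorescent; inactive = the rest, strongly fluorescent compounds included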;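 also: 0% = mean of negative and 100% = mean of positive controls; one replicate is shown; some compounds called inactive have numbers as strong as hits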
Target sequence (P9WFX0 whole entry, looked up): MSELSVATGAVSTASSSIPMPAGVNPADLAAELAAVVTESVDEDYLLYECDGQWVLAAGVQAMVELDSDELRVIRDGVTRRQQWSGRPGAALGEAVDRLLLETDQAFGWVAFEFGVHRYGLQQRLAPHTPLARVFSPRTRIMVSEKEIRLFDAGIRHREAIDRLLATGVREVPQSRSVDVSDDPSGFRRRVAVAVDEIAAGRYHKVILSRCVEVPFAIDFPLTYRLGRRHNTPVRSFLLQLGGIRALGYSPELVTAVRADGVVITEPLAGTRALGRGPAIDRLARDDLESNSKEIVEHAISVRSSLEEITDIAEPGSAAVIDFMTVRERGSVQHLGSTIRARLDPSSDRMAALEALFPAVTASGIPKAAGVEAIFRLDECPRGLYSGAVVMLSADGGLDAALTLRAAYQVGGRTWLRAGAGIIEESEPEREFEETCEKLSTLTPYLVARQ
Mtb MenB inh: Mtb MenB enzyme inhibition. P9WNP5. hit rate 0.43% among 100,000. inhibition, %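 (about 12 µg/mL by stock and volumes)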. MenB enzyme assay, absorbance read-out; some hits fall short of the stated cut;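 active = mean of two replicates above 30%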;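 also: 0% = no compound and 100% = wells with inactive enzyme; the first replicate is given; strong numbers were not always called active; inactives centre near -10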
PV pol inh: inhibitors of poliovirus RNA polymerase binding and polymerization; AID 588519; hit rate 0.66% among 150,000; poliovirus polymerase elongation, fluorescence polarization; hits give low values; P03300; % elongation, % (compound at 16.7 µg/mL); in the data active = % elongation below about 90%; also: some results filed as inactive read as strong as hits
Target sequence (P03300 1749-2209 limits assumed): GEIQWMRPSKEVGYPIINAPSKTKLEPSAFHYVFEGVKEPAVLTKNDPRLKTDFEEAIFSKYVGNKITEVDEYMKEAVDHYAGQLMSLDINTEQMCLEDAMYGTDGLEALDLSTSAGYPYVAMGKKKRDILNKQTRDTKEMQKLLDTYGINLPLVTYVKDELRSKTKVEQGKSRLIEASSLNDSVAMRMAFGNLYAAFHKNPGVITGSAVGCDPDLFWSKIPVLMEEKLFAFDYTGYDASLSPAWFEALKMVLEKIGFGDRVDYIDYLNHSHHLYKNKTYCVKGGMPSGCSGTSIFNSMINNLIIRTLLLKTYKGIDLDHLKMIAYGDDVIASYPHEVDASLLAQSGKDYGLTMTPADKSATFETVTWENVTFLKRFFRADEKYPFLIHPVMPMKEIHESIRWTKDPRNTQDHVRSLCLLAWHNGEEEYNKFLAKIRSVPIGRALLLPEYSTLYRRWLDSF
PV pol inh intensity: also measured in PV pol inh; calls as there; % elongation; measured here: total intensity read-out; formula for this scale not given here;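 total fluorescence in place of polarization; lower means less elongation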
* = called active by the depositor; / = not tested or not shown; & = joins results of further samples.

SMILES	MbtI inh	Mtb MenB inh	PV pol inh	PV pol inh intensity
Cc1ccc(Cl)cc1NC(=O)CC(O)(C(F)(F)F)C(F)(F)F	-11	4	100	103
C1CCOC2(CCC3(CC2)OCCCCO3)OC1	-20	0	101	103
CCOc1ccc(OCCSc2nc3ccccc3n2Cc2ccccc2)cc1	-3	-6	104	108
Cc1ccc(N/N=C2/CCc3ccccc3C2=O)cc1	7	-229	99	97
COc1ccc(CNC(=O)CCCn2c(=O)oc3ccccc32)cc1	-31	18	101	98
Cc1nn2c(nc1=O)SCC(c1ccccc1)=N2	-3	-25	104	95
CCn1nc(C)c(/C=N/NC(=O)c2cc(C3CC3)nc3ccccc23)c1C	5	12	102	104
CC(Sc1ncccn1)C(=O)N/N=C/c1ccccc1Cl (stereo not given)	2	-8	102	104
COc1ccc(C2OCC(CN3CCCCC3)O2)cc1 (stereo not given)	-6	6	102	103
O=C(NCc1ccc2[nH]c3c(c2c1)CCCC3)Nc1ccccc1	-2	-17	102	108
O=C(OCn1nnc2ccccc2c1=O)c1ccccc1	4	-25	104	108
CC1(C)C(=O)OC(c2ccco2)C(C)(C)C1=O (stereo not given)	/	-16	106	108
COc1ccc2cc3cc(C(=O)NCCCN4CCC(C)CC4)oc3nc2c1	117	-8	98	98
CCCCC(CC)C(=O)Nc1ccc(S(=O)(=O)N2CCCCC2)cc1 (stereo not given)	-7	-35	103	101
CS(=O)(=O)CCOC(=O)c1cccc(Br)c1	-7	-35	104	94
Cn1nc(CC(=O)Nc2ccc(-c3nnc4n3CCCCC4)cc2)c2ccccc2c1=O	5	7	98	98
CC1CCCCN1S(=O)(=O)c1ccc(NC(=O)c2cnccn2)cc1 (stereo not given)	-3	-19	103	99
CCOc1ccc(NC(=O)CC2(CC(=O)O)CCCC2)cc1	0	-30	102	108
Cc1ccc2c(c1)sc1nc(-c3ccccc3Cl)cn12	-21	-20	100	103
COc1cc(C(=O)N(CCC#N)C2CC(C)CC(C)(C)C2)cc(OC)c1OC (stereo not given)	-9	-20	103	109
COc1cccc(N(Cc2ccc(C)cc2)C2=NC3CS(=O)(=O)CC3S2)c1 (stereo not given)	-4	-19	101	97
COC(CNC(=O)C1CCC(CNS(=O)(=O)c2ccccc2)CC1)OC (stereo not given)	-16	-13	103	102
CCOP(=O)(CC)CC(=O)O (stereo not given)	-15	-26	99	104
O=C(O)C1CCN(c2ncnc3ccccc23)CC1	10	-15	102	102
Cn1c(CNC(=O)C2CCCCC2)cc2cc(Cl)ccc21	/	23*	104	103
O=C(c1ccccc1)c1cc(Cl)ccc1N=Cc1ccsc1	-10	/	102	107
CCCCOc1ccc(-c2nnc(-c3ccco3)n2-c2ccccc2)cc1	-449	-13	100	101
Cc1cccc(C(=O)NCC(=O)N(C)Cc2nc3ccccc3c(=O)[nH]2)c1	-5	-22	102	101
O=C(COc1ccc(Oc2ccccc2)cc1)NCCCn1ccnc1	-16	/	102	105
O=c1c(Cl)c[nH]n(-c2ccccc2)c1=O	8	8	100	103
COc1cccc(C2(O)CCN(C(=O)c3cccs3)CC2)c1	-1	-41	101	100
C=C(C)c1cccc(C(C)(C)NC(=O)NCCc2ccc(F)cc2)c1	-200	-33	104	104
COC(=O)c1c(C)n(S(C)(=O)=O)c2ccc(N(C(C)=O)S(C)(=O)=O)cc12	-11	-32	102	102
CC(=O)Nc1ccc(OCc2cn3cc(C)ccc3n2)cc1	24	11	100	108
CC(Sc1nnc(-c2ccco2)o1)C(=O)NC1CCCC1 (stereo not given)	4	7	/	/
CCN(CC)C(=S)Nc1ccc2oc(N(C)C)nc2c1	/	-7	90*	94*
CCCC(=O)Nc1cccn(Cc2cccc(OC)c2)c1=O	-133	-7	101	101
COC(=O)c1sc(N)c(C(=O)OC)c1CN1CCOCC1	9	-7	102	110
COc1ccc(NC(=O)CCc2nc3ccc(C)cc3[nH]2)c(OC)c1	-1	19	102	106
O=C(CSc1nc(-c2ccccc2)cc(=O)[nH]1)NCC1CCCO1 (stereo not given)	4	-16	99	103
CC1(C)CC(=O)CC(=NCC(=O)O)C1	/	-19	100	97
COc1ccc(C(=O)COC(=O)c2ccc(N)cc2)cc1	6	-55	98	101
O=S(=O)(NCCCc1ccccc1)c1cccc2nsnc12	-3	-9	101	102
COCC(C)NCc1cccc(OC)c1 (stereo not given)	/	-12	112	115
Cn1cc(CCC(=O)NCCCN2CCC(N3CCCCC3)CC2)c2ccccc21	10	-16	100	103
CCc1ccc(NC(=O)N(CCC(C)C)C(C)c2ccco2)cc1 (stereo not given)	6	8	101	97
CCNc1nc(-c2ccc(C)cc2)cs1	77	12	99	102
Cc1c(C(=O)NCCCN2CCCCCC2)oc2ccc3nc(N(C)C)sc3c12	-4	-42	100	91

Reprinted at random: six compounds from above, in no set order.
SMILES	MbtI inh	Mtb MenB inh	PV pol inh	PV pol inh intensity
CS(=O)(=O)CCOC(=O)c1cccc(Br)c1	-7	-35	104	94
O=S(=O)(NCCCc1ccccc1)c1cccc2nsnc12	-3	-9	101	102
CCCCC(CC)C(=O)Nc1ccc(S(=O)(=O)N2CCCCC2)cc1 (stereo not given)	-7	-35	103	101
O=C(OCn1nnc2ccccc2c1=O)c1ccccc1	4	-25	104	108
Cc1cccc(C(=O)NCC(=O)N(C)Cc2nc3ccccc3c(=O)[nH]2)c1	-5	-22	102	101
CC(Sc1nnc(-c2ccco2)o1)C(=O)NC1CCCC1 (stereo not given)	4	7	/	/

Molecules listed so far with fluorine, in the order listed:
SMILES	MbtI inh	Mtb MenB inh	PV pol inh	PV pol inh intensity
Cc1ccc(Cl)cc1NC(=O)CC(O)(C(F)(F)F)C(F)(F)F	-11	4	100	103
C=C(C)c1cccc(C(C)(C)NC(=O)NCCc2ccc(F)cc2)c1	-200	-33	104	104

Continuation.
SMILES	MbtI inh	Mtb MenB inh	PV pol inh	PV pol inh intensity
COc1ccc(S(=O)(=O)NCC(c2cccnc2)N2CCN(C)CC2)cc1OC (stereo not given)	11	-18	96	110
Cc1ccccc1C(=O)Nc1cccc(N(C)C)c1	-7	2	102	102
O=S(=O)(CCN1C=CC(C(F)(F)F)=NCC1)c1ccc(F)cc1	3	-9	106	111
N#Cc1cnn(-c2ccccc2)c1N	-10	/	103	105
Cc1nc(N2CCN(C(=O)c3ccco3)CC2)c2c3c(sc2n1)CC(C(C)(C)C)CC3 (stereo not given)	5	-136	100	101
S=C(NCCc1ccncc1)NC1CCCCC1	-17	1	100	103
COC1C(OC)N(S(C)(=O)=O)CCN1S(C)(=O)=O (stereo not given)	-6	3	101	100
CCCCCCCCNC(C)C(O)c1ccc(SC(C)C)cc1 (stereo not given)	-1&-15	2&-1	100&102	100&101
CS(=O)(=O)Nc1ccc(C(=O)N2CCCCC2)cc1	-10	9	101	103
Cc1ccc(N=Cc2ccc(F)cc2)c(C)c1	-7	/	102	100
COC(=O)c1c(NC(=O)CSc2nnc(-c3cccnc3)n2C)sc2c1CCC2	-7	-17	101	102
O=C(COc1ccccc1)Nc1ccc(I)cc1	19	1	103	95
NS(=O)(=O)c1ccc(CCN2CC3=C(C2=O)C(c2ccccc2)NC(=O)N3)cc1 (stereo not given)	-5	-12	102	111
CCN1CCN(C(c2cccs2)C(C)NC(=O)C(C)C)CC1 (stereo not given)	-8	-12	105	103
Cn1nc(C(C)(C)C)cc1C(=O)NN1CCOCC1	-6	10	101	104
CC(C)c1ccc(-c2noc(C3CCCN(C(=O)Cc4cccs4)C3)n2)cc1 (stereo not given)	0	-176	102	104
O=C(Cn1c(-c2cccs2)cc2ccccc21)N1CCC2(CC1)OCCO2	112	-8	101	101
CS(=O)(=O)N1CCN(CC(=O)NC2CCCCC2)CC1	-2	3	102	104
CSc1ncc(Cl)c(C(=O)Nc2cccnc2)n1	6	-6	102	103
COc1ccc(CC(=O)N2CCCC2)cc1	-6	10	99	101
CCOC(=O)c1oc2ccccc2c1CSc1nnc(-c2ccc(C)cc2)n1N	-2	-4	99	95
COC(=O)NCCOc1cc(C)ccc1C	-4	-5	99	100
CC(C)=NOCC(=O)Nc1ccccc1C	-15	-25	101	101
COc1ccc(-n2c(C)cc(-c3csc(/N=C/N(C)C)n3)c2C)cc1	17	-6	109	114
CN(C)c1ccc(C(C(=O)NCc2ccccc2)N(Cc2ccco2)C(=O)c2snc(C(N)=O)c2N)cc1 (stereo not given)	-3	29	105	102
COC(=O)C1C(=O)C2=C(CC1C)Nc1ccccc1NC2c1cccc(Br)c1 (stereo not given)	/	-32	105	98
COc1cc(-c2noc(-c3nnn(-c4cccc(Cl)c4C)c3C)n2)cc(OC)c1OC	-14	-11	99	102
O=C(COC(=O)CSc1ccc2ccccc2c1)NC1CC1	-3	/	99	101
O=C1CSc2ccc(C(=O)NCCCn3ccnc3)cc2N1	-10	-22	100	100
c1ccc(CN2CCC(NN3CCOCC3)CC2)cc1	-3	1	99	104
Cc1cccc(NC(=O)CNC(=O)OCc2ccccc2)c1	/	-7	105	110
Cc1cc(C)c2nc(C(F)(F)F)nc(NCc3ccc4c(c3)OCO4)c2c1	-3	-40	102	106
Cc1cc(-n2c(C)cc(CNC3CC(C)(C)NC(C)(C)C3)c2C)no1	8	5	101	103
CCOC(=O)c1oc2nc(-c3ccccc3)cc(-c3ccco3)c2c1N	0	-4	94	168
OCC1CCCN1CC1CC1 (stereo not given)	-6	-1	104	106
CCCCN(CC)S(=O)(=O)c1ccc2c(c1)CCN2C(C)=O	-4	-10	103	100

Record cards, as listed above. Values in the order: MbtI inh	Mtb MenB inh	PV pol inh	PV pol inh intensity
`Cc1cc(-n2c(C)cc(CNC3CC(C)(C)NC(C)(C)C3)c2C)no1` across the screens: 8	5	101	103
`Cc1cc(C)c2nc(C(F)(F)F)nc(NCc3ccc4c(c3)OCO4)c2c1` across the screens: -3	-40	102	106
`Cc1cccc(NC(=O)CNC(=O)OCc2ccccc2)c1` across the screens: /	-7	105	110

Additional entries
SMILES	MbtI inh	Mtb MenB inh	PV pol inh	PV pol inh intensity
Cc1c(NC2=CC(=O)CCC2)c(=O)n(-c2ccccc2)n1C	17	-2	100	101
CCCCn1cnc2c(c1=O)c1nc3ccccc3nc1n2CCc1ccc(OC)cc1	-18	-9	100	102
O=C(NCCCn1ccnc1)C1CCN(S(=O)(=O)c2ccc(F)cc2)CC1	-4	7	102	104
CCN(CC)C(=O)CSc1nc2nc(C)cc(C)c2c(=O)[nH]1	199	-1	104	101
Cc1cc2nnc(SCC(N)=O)n2c2ccccc12	-49	/	100	102
Oc1oc(-c2cccs2)nc1/C=C1\C=Nc2ccccc21	-8	/	100	104
CC(OC(=O)C1CCCN1S(=O)(=O)c1ccc(Cl)cc1)C(=O)Nc1ccc(C(N)=O)cc1 (stereo not given)	-4	-1	103	105
Cc1[nH]nc(CSSCc2n[nH]c(C)c2C(=O)NN)c1C(=O)NN	5	-9	103	103
CCSc1nnc(-c2ccccc2)n1Cc1ccc2c(c1)OCO2	10	-18	102	90
CCOC(=O)c1c(O)c(O)c(C(=O)OCC)n1-c1ccc(OC)cc1	34	-3	103	97
Cc1oc(S(=O)(=O)N2CCCC2)cc1C(=O)NCCN1CCNC1=O	-4	-11	101	101
O=S(=O)(c1ccc(Cl)cc1)c1cnn(S(=O)(=O)c2ccccc2)c1-c1ccc(Cl)cc1	-8	-9	108	109

Taken from above:
Cc1c(C(=O)NCCCN2CCCCCC2)oc2ccc3nc(N(C)C)sc3c12 – PV pol inh intensity = 91
Cc1ccc(Cl)cc1NC(=O)CC(O)(C(F)(F)F)C(F)(F)F – Mtb MenB inh = 4
CC1(C)CC(=O)CC(=NCC(=O)O)C1 – PV pol inh intensity = 97
Cn1cc(CCC(=O)NCCCN2CCC(N3CCCCC3)CC2)c2ccccc21 – PV pol inh = 100
CCOc1ccc(NC(=O)CC2(CC(=O)O)CCCC2)cc1 – MbtI inh = 0
COc1ccc(C2OCC(CN3CCCCC3)O2)cc1 (stereo not given) – Mtb MenB inh = 6

Additional compounds.
SMILES	MbtI inh	Mtb MenB inh	PV pol inh	PV pol inh intensity
O=C(COc1ncnc2ccccc12)Nc1ccccc1	-10	/	99	96
Cc1nnc(SCCNS(=O)(=O)c2ccccc2)s1	-22	-11	100	105
COc1ccc(N2CCN(C=C3C(=O)N(C)C(=O)N(C)C3=O)CC2)cc1	16	-12	101	106
Cc1ccc(C)c(N2CCN(CCCNC(=O)c3cn4c5c(ccc(Cl)c5c3=O)OC(C)C4)CC2)c1 (stereo not given)	108	-2	100	100
Cc1n[nH]c(C)c1-c1nc2ccccc2[nH]1	12	15	101	98
O=S(=O)(c1cccs1)N1CCN(c2cccc(C(F)(F)F)c2)CC1	-6	-10	94	99
CC(C)N(Cc1ccccc1)S(=O)(=O)N(C)C	/	6	105	107
